Bioassay records: PubChem BioAssay, National Center for Advancing Translational Sciences (NCATS)
miR-21 FLuc: miR-21 reporter, rising signal. HeLa miR-21 FLuc reporter, luciferase, 48 h. Potency, µM (titrated, usually from 38.3 µM), for inactives: at the highest dose reporter change, positive = more light. 340,000 tested, under 10 active. AID 2288; active = well fitted rising curve with a large enough effect; inconclusive = small, poorly fitted or top-dose-only effect; inactive = no such curve, though single readings can be large or run the other way;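 further: % of control where 0% means no effect; miR-21 action dims this reporter so a rising signal means less miR-21 action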
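HeLa cells stably expressing CMV-driven firefly luciferase with a downstream miR-21 binding sequence, endogenously expressing miR-21, were treated with titrations (up to about 40uM final) for 48 hours at 37 degree Celsius. Luciferase luminescence was read after lysis.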
Rango release inh: inhibition of RanGTP-driven Rango-importin beta dissociation. O95149+P62826. Biochemical FRET Rango-importin beta, RanGTP-induced dissociation. Potency, µM (top dose mostly 46.1 µM), inactives show at the highest dose activity change, negative = inhibition. 0.071% of 340,000 active. AID 540253; active means falling FRET ratio curve, often poorly fitted, with flat reads before Ran was added; inconclusive means other falling curves, or compound fluorescence or quenching; inactive means flat or rising ratio curve;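 further: potency means the concentration at half of the fitted maximal effect; % of control where 0% means no effect; nearly all actives have a fitted effect of over 45% in size; -100% = wells without RanGTP and RCC1; the record marks most hits as doubtful in a second field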
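Compounds preincubate 5 min with complex of recombinant Rango and importin beta in PBS with 1 mM DTT. Ran (0.6 uM) loaded with 2 mM GTP plus 0.2 uM RCC1 starts dissociation; FRET is recorded 45 min later.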
Rango-impB inh: inhibitors of Rango-importin beta complex formation. Q14974. AID 540263. Potency, µM (highest dose often 92.2 µM), for inactives: top-dose inhibition of complex formation. Rango CFP/YFP FRET sensor + importin beta, 45 min. 0.031% of 340,000 active; active = rising FRET ratio curve, often small or poorly fitted; inconclusive = mostly compound fluorescence or quenching in the first reads; inactive = flat curves in all reads;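 further: potency means the concentration at half of the fitted maximal effect; 0% = DMSO wells and 100% = buffer wells lacking importin beta; nearly all actives have a fitted effect of over 15% in size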
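FRET biosensor Rango (snurportin 1 IBB between N-terminal EYFP and C-terminal Cerulean), 50 nM in PBS/1 mM DTT/0.02% Tween-20/0.1% BSA, preincubated 5 min RT with compound; 0.125 microM importin beta added, 45 min RT, CFP/YFP FRET ratio read.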
GLA inh pH 4.5: blocks human alpha-galactosidase A at pH 4.5; P06280; purified enzyme, 4-MU-alpha-Gal fluorescence, pH 4.5; activity change, negative = inhibition, % at 105 µM; 230,000 tested, under 10 active; inconclusive = small, poorly fitted or top-dose-only inhibition, or a rising curve; inactive = flat fitted curve, though single readings scatter; no compound was filed as active;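 further: 0% = full activity with enzyme and -100% = basal without enzyme; dose as in the result columns while the protocol names 77 µM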
Target sequence (P06280 whole entry, looked up): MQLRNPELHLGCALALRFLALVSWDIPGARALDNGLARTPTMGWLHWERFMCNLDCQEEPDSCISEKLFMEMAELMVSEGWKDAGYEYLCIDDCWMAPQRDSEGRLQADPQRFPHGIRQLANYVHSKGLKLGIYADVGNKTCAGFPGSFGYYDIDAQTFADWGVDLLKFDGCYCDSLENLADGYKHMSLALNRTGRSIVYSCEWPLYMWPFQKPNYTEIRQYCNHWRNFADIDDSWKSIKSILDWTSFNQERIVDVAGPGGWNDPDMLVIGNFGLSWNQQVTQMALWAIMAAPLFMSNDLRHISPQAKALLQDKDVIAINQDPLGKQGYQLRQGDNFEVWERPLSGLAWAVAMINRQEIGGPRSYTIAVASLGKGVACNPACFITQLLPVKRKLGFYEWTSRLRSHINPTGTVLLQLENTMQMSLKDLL
Active calls of the source: *; u = inconclusive; x = no result given; & = joins results of further samples.

The first four compounds as a preview:
SMILES	miR-21 FLuc	Rango release inh	Rango-impB inh	GLA inh pH 4.5
COc1ccc(C2c3ccc4ccccc4c3Oc3ncn(CCN4CCOCC4)c(=N)c32)cc1OC (stereo not drawn)	-23%	-9%	-0.6%	-11
O=C(c1cccc(N2C(=O)C3CC=CCC3C2=O)c1)N1CCCc2ccccc21 (stereo not drawn)	-25%	-15%	3.1%	-4
COC(=O)c1c(NS(=O)(=O)c2ccccc2)csc1C	-4%	7%	-1.7%	-1
Cc1cc(C)nc(N(C#N)CC(=O)Nc2ccccc2)n1	-2%	2%	0.0%	-11

Results (from the top)
SMILES	miR-21 FLuc	Rango release inh	Rango-impB inh	GLA inh pH 4.5
COc1ccc(C2c3ccc4ccccc4c3Oc3ncn(CCN4CCOCC4)c(=N)c32)cc1OC (stereo not drawn)	-23%	-9%	-0.6%	-11
O=C(c1cccc(N2C(=O)C3CC=CCC3C2=O)c1)N1CCCc2ccccc21 (stereo not drawn)	-25%	-15%	3.1%	-4
COC(=O)c1c(NS(=O)(=O)c2ccccc2)csc1C	-4%	7%	-1.7%	-1
Cc1cc(C)nc(N(C#N)CC(=O)Nc2ccccc2)n1	-2%	2%	0.0%	-11
COc1ccc(OC)c(NC(=O)COC(=O)c2ccc(OC)c(S(=O)(=O)N3CCCC3)c2)c1	x	10%	6.3%	x
O=[N+]([O-])c1cc(C(F)(F)F)ccc1NCC1CCCO1 (stereo not drawn)	-2%	8%	3.0%	x
CC(=O)N1CCN(C(=S)NCc2ccccc2)CC1	-5%	9%	-1.7%	-17
Cc1ccc(C2=NCCn3nc4cc(C(F)(F)F)ccc4c32)cc1	x	u	-2.1%	x
Cc1ccc(C(C(=O)NC2CCCCC2)N(Cc2ccco2)C(=O)Cn2cnc3ccccc32)cc1 (stereo not drawn)	4%	-18%	-3.0%	-1
CCN(CC(=O)Nc1c(F)cccc1F)C(=O)c1ccc(-c2ccccc2)cc1	x	18%	-3.8%	x
O=[N+]([O-])c1cccc(-c2nnc(-c3ccc4c(c3)OCO4)o2)c1	-46%	-13%	-3.0%	-5
O=C(CSc1nnnn1-c1ccccc1)Nc1ncc(Cc2cc(Cl)ccc2Cl)s1	-1%	1%	0.4%	3
COc1cccc(C(=O)Nc2cccc(OCC(=O)O)c2)c1	-4%	1%	-3.0%	-8
CCC(=O)N1N=C2CC(C)(C)OCC2C1c1ccccc1 (stereo not drawn)	-5%	10%	-4.2%	8
O=C(NC1CCCCCC1)C1Cc2ccccc2CN1C(=O)c1ccco1 (stereo not drawn)	-14%	-1%	0.0%	10
Cn1cc(C[C@H](NC(=O)OC(C)(C)C)C(=O)N[C@@H](CO)Cc2ccccc2)c2ccccc21	x	4%	-0.3%	x
CN1CCN(c2nc(-c3ccccn3)nc3ccccc23)CC1	u	-13%	3.0%	1
CC1(C)CC[C@]2(C(=O)O)CC[C@]3(C)C(=CCC4[C@@]5(C)CC[C@H](O)C(C)(C)C5[C@H](O)C[C@]43C)[C@@H]2C1 (stereo partly drawn)	x	16%	4.2%	x
Cc1ccc(N(CC(O)CN2CCCC2)S(=O)(=O)c2ccc(C)cc2)cc1 (stereo not drawn)	-1%	-10%	1.5%	4
COc1ccc(-n2c(SCC(N)=O)nnc2-c2ccccc2F)cc1	-11%	-6%	-3.3%	4
CCN(CC)c1ccc(/C=C/c2nc3ccccc3s2)cc1	-28%	x	x	7
COc1ccc(NC(=O)Nc2cccc(C)n2)cc1	-53%	-7%	u	-8
CSc1ccccc1-n1nnnc1SCC(=O)Nc1ccccc1C	-2%	-4%	u	5
FC(F)(F)c1nnc2ccc(N3CCCCC3)nn12	x	4%	-7.4%	x
CCN(CC)S(=O)(=O)c1ccc(C(O)=C(C#N)c2nc3ccccc3n2C)cc1	x	-18%	-0.3%	x

(continued)
SMILES	miR-21 FLuc	Rango release inh	Rango-impB inh	GLA inh pH 4.5
CCCc1nc(C)cc(N2CCN(c3ccccc3)CC2)n1	15%	-10%	-3.1%	x
Oc1ccc(Br)cc1/C=N/n1c(-c2ccccc2)n[nH]c1=S	-1%	u	u	x
Cc1cc(C)c(OC2(c3ccccc3)OC(=O)c3ccccc32)c(C)c1 (stereo not drawn)	11%	-12%	-1.4%	4
O=C(Cn1cnc2ccccc2c1=O)NCc1cccs1	-6%	0%	-4.9%	6
COc1ccc(CCNC(=O)c2cccc(Br)c2)cc1OC	0%	0%	u	x
Cc1ccccc1NC(=O)Nc1cnccn1	-10%	-9%	6.8%	x
COc1c(Cl)cc(Cl)cc1/C=N/NC(=O)c1nnn(-c2nonc2N)c1CN1CCC(C)CC1	-3%	-1%	1.7%	x
O=C(Cc1ccsc1)NCC(=O)Nc1ccc(F)c(F)c1	0%	6%	1.9%	x
COc1cccc(-n2cc(CN(C)Cc3nc(Cc4cccc(F)c4)no3)cn2)c1	-6%	14%	4.0%	3
COc1cc2c(cc1OC)CN(S(=O)(=O)c1ccc3c(c1)OCCO3)CC2	-7%	-7%	0.7%	-5
O=C(C1CC(=O)N(c2ccccc2)C1)N1CCCCCC1 (stereo not drawn)	-17%	5%	-4.5%	x
COc1cccc(-c2csc(N3CCN(CC(=O)Nc4ccc5c(c4)OCO5)CC3)n2)c1	0%	3%	u	-10
COCCNC(=O)[C@@]1(Cc2ccccc2)C=C[C@@H](C)N1C(C)=O	-36%	12%	-1.3%	-4&-4
O=C(NC1CCN(Cc2ccccc2)CC1)c1cc(S(=O)(=O)N2CCOCC2)ccc1Cl	x	-6%	1.7%	x
S=C(NCC(c1ccco1)N1CCCC1)Nc1ccccc1 (stereo not drawn)	1%	-13%	-2.8%	-5
C/C(CC(=O)Nc1ccc(C)c(Cl)c1)=N\NC(=O)Cc1cnc(N)s1	-12%	-6%	0.0%	9
Cc1ccc(NC(=O)COC(=O)CN2C(=O)C3CCCCC3C2=O)cc1S(=O)(=O)N1CCOCC1 (stereo not drawn)	-2%	-8%	-2.2%	2
O=C(CC(=O)N/N=C/c1c(F)cccc1Cl)NCCc1ccccc1	-2%	-5%	-1.4%	x
Cc1cc(S(=O)(=O)N2CCN=C2c2ccccc2)ccc1F	-7%	2%	-4.9%	10
CCOC(=O)N1CCN(C(=O)c2ccc3nc(-c4ccccc4)c(-c4ccccc4)nc3c2)CC1	2%	-3%	0.2%	x
C=CCN1C(=O)c2ccccc2Sc2ccc(C(=O)NCC(OC)OC)cc21	0%	12%	3.8%	x
C=CCn1c(SCC(=O)c2cccs2)nc2sc(C)cc2c1=O	5%	3%	0.2%	0
Cc1nc2ccccc2nc1Nc1cccc(Cl)c1	-9%	11%	-4.6%	x
COc1ccccc1C(=O)OCC(=O)NC(C)CCc1ccccc1 (stereo not drawn)	-17%	-13%	-2.1%	x
Cc1nn(CC(=O)Nc2ccc(Cl)c(S(=O)(=O)N(C)C)c2)c(C)c1[N+](=O)[O-]	1%	30%	3.9%	-4

Single records (already shown):
Profile of Cc1cc(C)c(OC2(c3ccccc3)OC(=O)c3ccccc32)c(C)c1 (stereo not drawn) → miR-21 FLuc: 11%; Rango release inh: -12%; Rango-impB inh: -1.4%; GLA inh pH 4.5: 4
Profile of O=C(Cn1cnc2ccccc2c1=O)NCc1cccs1 → miR-21 FLuc: -6%; Rango release inh: 0%; Rango-impB inh: -4.9%; GLA inh pH 4.5: 6

(list continues)
SMILES	miR-21 FLuc	Rango release inh	Rango-impB inh	GLA inh pH 4.5
COCCNC(=O)c1cnn2c(C(F)F)cc(-c3ccccc3)nc12	-1%	0%	-3.6%	9
CCC1CCCCN1C(=O)COC(=O)COc1ccc(Br)cc1 (stereo not drawn)	x	-6%	1.3%	x
Cc1cc(C)c2cc(C(=O)N3CCC(Cc4ccccc4)CC3)[nH]c2c1	1%	-6%	-1.5%	-15
Cc1cccc(C2CN(C)CCc3c2cc(O)c(O)c3Cl)c1 (stereo not drawn)	x	-2%	-1.0%	-2
O=C(NCc1ccc(F)cc1)C(=O)NCC(c1ccco1)N1CCOCC1 (stereo not drawn)	0%	1%	2.7%	-18
CCOc1ccc(C(C)=O)cc1CN1C(=O)NC2(CCCCCC2)C1=O	-1%	4%	0.3%	x
Cc1cc(N2CCN(C)CC2)nc2ccc(NC(=O)c3ccc4c(c3)OCO4)cc12	-47%	-7%	0.4%	-4
COc1ccccc1-c1nnc(NC(=O)OCC(C)C)s1	-13%	-12%	-3.5%	-4
CCCN(C(=O)c1c(CC)noc1C)c1c(N)n(Cc2ccccc2)c(=O)[nH]c1=O	x	4%	0.0%	x
CC(=O)c1csc(COc2ccccc2)n1	-40%	-4%	6.6%	1
CC(=O)c1ccc(NC(=O)N2C3CCC2CC(O)(c2cccnc2)C3)cc1 (stereo not drawn)	-4%	-4%	-3.3%	7
CCCn1cnc2c(=O)oc3ccccc3c21	-17%	22%	0.0%	8
COc1ccccc1C(C[N+](=O)[O-])c1c(N)n(C)c(=O)n(C)c1=O (stereo not drawn)	u	-8%	-0.1%	1
Cc1ccc(C(=O)NC2CC3CCC(C2)N3C)cc1 (stereo not drawn)	x	15%	-0.6%	x
CC(C)CCC(O)(CCC(C)C)C(=O)NNc1ccccc1	-5%	-1%	0.8%	0
N#Cc1cc(-c2ccccc2)[nH]c1-c1nccc2ccccc12	25%	-7%	u	1
Cc1cnnc2c1-c1nonc1CC2	0%	0%	-1.6%	-7
O=C(Nc1ccc(S(=O)(=O)Nc2ncccn2)cc1)c1cccc(Br)c1	-3%	-11%	-2.7%	x
Cc1ccc(S(=O)(=O)N(C)c2ccc(OC(=O)c3ccc(N4CCCC4=O)cc3)cc2)cc1	1%	-11%	-0.4%	x
Cc1cc(C)c(S(=O)(=O)N(CC(=O)O)C2CCCCC2)c(C)c1	-1%	16%	-1.4%	11
O=C(Cc1ccc(-c2ccccc2)cc1)NC(c1ccccc1)c1ccccc1	-8%	-4%	u	5
CN1CCN(Cc2cn[nH]c2-c2ccc(F)cc2F)[C@@H](c2ccccc2)C1	-2%	-5%	-0.6%	1
COc1cc(-c2nnc(CSc3nnc(Nc4ccc(C(C)C)cc4)s3)o2)cc(OC)c1OC	-15%	23%	5.9%	2
CC(C)CCNC(=O)c1cccc(C(=O)NCCC(C)C)c1	-6%	7%	0.9%	-6
CS/C(=C\C(=O)c1ccco1)Nc1ccccc1Cl	-19%	-7%	-1.9%	-5

More structures:
SMILES	miR-21 FLuc	Rango release inh	Rango-impB inh	GLA inh pH 4.5
CC(C)C(C)NC(=O)CN1C(=O)NC2(CCc3ccccc3C2)C1=O (stereo not drawn)	-4%	-5%	1.6%	6
Cc1cc(C)c(S(=O)(=O)NCc2cccnc2)cc1C	6%	-4%	0.3%	x
CCn1c(=O)cc(OCC(=O)N2CCN(c3ccc(F)cc3)CC2)c2ccccc21	7%&5%	0%	0.4%	-1
COc1cccc(NC(=O)CSc2nnc3ccc(-c4ccncc4)nn23)c1	x	-13%	-2.2%	x
Cc1ccc(C(=O)N2CCCC(C(=O)c3ccc(Oc4ccccc4)cc3)C2)cn1 (stereo not drawn)	26%	3%	-1.7%	-13
C/C(=N\NC(=O)Cn1nc(C)c([N+](=O)[O-])c1C)c1ccc(Cl)s1	-1%	0%	-3.1%	1
COC(=O)c1ccc(OC(=O)C2CC(=O)N(c3ccc(C)cc3C)C2)cc1 (stereo not drawn)	-6%	-1%	1.4%	-14
CC(=O)c1ccc2c3c(cc(C)c2c1)CCCC3	x	1%	1.4%	x
O=C(N/N=C/c1ccco1)c1cc(-c2cccc3ccccc23)n[nH]1	-47%	-28%	0.4%	-2
CCOC(=O)C1C(=O)NC(N2CCOCC2)=NC1C(C)C (stereo not drawn)	1%	20%	-0.7%	2
Nc1nonc1-n1nnc(C(=O)N/N=C/c2c[nH]c3ccccc23)c1-c1ccccc1	0%	9%	-0.3%	x
O=C(NCCC1CCCCN1S(=O)(=O)c1cccs1)C(=O)Nc1ccc(F)cc1F (stereo not drawn)	x	-10%	1.2%	x
Cc1ccc(NC(=O)c2c(Cl)nc3ccccn23)cc1	-62%	-2%	-1.1%	9
C=CCN1C(=O)/C(=C/c2ccc(OCC(=O)O)cc2)S/C1=N/c1nccs1	0%	-17%	u	-13
Cc1csc(=O)n1CC(=O)OCC(=O)Nc1cc(Cl)ccc1[N+](=O)[O-]	0%	8%	-0.2%	x

Not all compounds are listed (hit frequency here may not be typical).
